PKD1 kinase inh = PKD1 (human) kinase inhibition | Q15139 | PKD1 kinase fluorescence polarization assay | inhibition, %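 (about 10 µM by stock and volumes)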 | hit rate 0.056% among 200,000 | AID 797;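 active means inhibition of 50% or more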;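 further: controls were vehicle for no effect and a reference inhibitor for full effect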
HSV augment = HSV replication enhancement. maximum fold increase. HSV replication augmentation in cells, fold increase. hit rate 0.005% among 220,000. AID 1956;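 active means peak rise of 1.5-fold or more in the series; inconclusive means self-fluorescent or not available for retest; tested in PC3 cells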;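 further: first round at 10 µM; read as green reporter fluorescence; hits show the peak of a series up to 25 µM; 1 = signal of infected wells without compound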
GALR2 ag = GALR2 (human) receptor agonism; O43603; GALR2-expressing cells, agonist activation read-out; activation, %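 (tested at 5 µM)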; hit rate 0.48% among 140,000;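 active means above mean plus 3 SD of all compounds, about 5% in these data, not always enough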;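 further: 0% = vehicle buffer wells and 100% = reference agonist at full effect; tested in CHO reporter cells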
Target sequence (O43603 whole entry, looked up): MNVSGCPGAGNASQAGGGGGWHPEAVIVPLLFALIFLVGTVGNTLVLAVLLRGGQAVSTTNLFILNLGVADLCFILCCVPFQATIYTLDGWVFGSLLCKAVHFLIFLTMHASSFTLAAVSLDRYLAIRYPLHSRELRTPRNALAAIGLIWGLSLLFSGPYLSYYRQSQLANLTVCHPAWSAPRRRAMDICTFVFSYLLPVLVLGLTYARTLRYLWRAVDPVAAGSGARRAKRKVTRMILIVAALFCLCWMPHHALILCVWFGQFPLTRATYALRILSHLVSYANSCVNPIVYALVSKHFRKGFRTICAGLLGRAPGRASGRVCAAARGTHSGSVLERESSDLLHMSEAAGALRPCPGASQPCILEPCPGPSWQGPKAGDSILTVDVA
RGS16-Gao HTS = modulates binding between human RGS16 and Galphao. bead-based flow cytometry RGS16-Galphao binding, fluorescence; actives lie on both sides. binding response (% of control), % at 10 µM. hit rate 0.38% among 220,000. AID 1441;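 active means below 25% or above 175%, edge rows of some plates excepted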;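 further: Galphao activated by GDP with aluminum fluoride before binding; 100% = wells without compound and 0% = beads without RGS; some results beyond the cut were filed as inactive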
Target sequence (O15492 whole entry, looked up): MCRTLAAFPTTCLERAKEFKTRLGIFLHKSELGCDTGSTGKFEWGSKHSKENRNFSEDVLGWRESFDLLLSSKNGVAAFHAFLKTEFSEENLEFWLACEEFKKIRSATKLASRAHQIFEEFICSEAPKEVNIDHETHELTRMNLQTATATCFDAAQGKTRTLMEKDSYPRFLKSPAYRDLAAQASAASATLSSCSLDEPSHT
Target sequence (P09471 whole entry, looked up): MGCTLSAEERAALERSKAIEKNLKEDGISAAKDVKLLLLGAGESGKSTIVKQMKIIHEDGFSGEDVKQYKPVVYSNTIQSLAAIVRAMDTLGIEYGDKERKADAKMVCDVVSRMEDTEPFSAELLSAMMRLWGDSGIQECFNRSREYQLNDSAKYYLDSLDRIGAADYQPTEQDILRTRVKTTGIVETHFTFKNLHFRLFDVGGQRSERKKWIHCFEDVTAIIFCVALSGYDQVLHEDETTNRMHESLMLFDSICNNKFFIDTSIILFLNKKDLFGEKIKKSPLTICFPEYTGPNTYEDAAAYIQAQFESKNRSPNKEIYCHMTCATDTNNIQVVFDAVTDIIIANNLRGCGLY
INS promoter inh = TRM-6 insulin promoter activity inhibition; inhibition, % at 2 µM; hit rate 0.9% among 130,000; TRM-6 cells (human fetal islet line), insulin promoter-eGFP reporter, imaging; reporter expression induced with tamoxifen; AID 1273;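 active means inhibition above the mean plus 3 SD, with well images judged a real hit on visual review, cut at about 60% in these data, passing the limit was not always enough; inconclusive means inhibition over the cutoff but images rejected on review; inactive means inhibition not above the cutoff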
INS promoter inh cell count = further read-out of INS promoter inh, marked with its call; normalized cell count, %; measured here: cell count, toxicity; reference of the scale not given here;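 cells exposed to compound for 48 h; stained nuclei by imaging scaled within each plate; lower means fewer cells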
HSV augment primary fold = recorded beside HSV augment, whose call it bears; fold increase; compound at 10 µM; measured here: primary screen fold increase 10 uM; tested in PC3 cells;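 GFP signal in the first replicate; 1 = infected wells without compound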
* marks the source's active call; other numbers are inactive results; i = inactive; ? = inconclusive; / = not tested or not shown.

The line under a structure holds: PKD1 kinase inh	HSV augment	HSV augment primary fold	GALR2 ag	RGS16-Gao HTS	INS promoter inh	INS promoter inh cell count
> CCN(CC)CCCNC(=O)CSc1nc(-c2ccc(F)cc2)cc(C(F)(F)F)n1
    3	i	0.82	/	95	21	103
> Cc1ccc2c(CN3CCN(CCO)CC3)cc(=O)oc2c1C
    -3	i	0.86	-0.3	104	29	150
> CC(Nc1ccc(Cl)c(Cl)c1)C(=O)NN (stereo unspecified)
    /	i	1	/	107	/	/
> Cc1onc(-c2ccccc2)c1-c1nc2ccccc2c(=O)o1
    -3	i	0.81	-4.1	95	-11	130
> CCN(CC)CCn1c(NCc2cc(OC)ccc2OC)nc2ccccc21
    1	/	/	-1.8	101	56	129
> CCOC(=O)c1cc(-c2ccco2)nn1-c1ccc(C)cc1
    -8	i	1.1	/	100	/	/
> O=C(CNC(=O)OCc1ccccc1)NC1CCCCCCC1
    -4	i	0.95	-1.3	113	20	56
> Cc1ccc(NC(=O)Cc2ncc(C(F)(F)F)cc2Cl)cc1Cl
    11	i	1.3	-2.8	121	-9	108
> Cc1ccc(NC(=O)CN(C)C(=O)CSc2ncc(C(F)(F)F)cc2Cl)cc1
    -7	i	1.1	-1.1	107	-4	92
> CCCOC(=O)CSc1nnc(-c2cc(OC)c(OC)c(OC)c2)o1
    2	i	0.96	-0.6	134	0	133
> CCOC(=O)/C=C1\SCC(=O)N1CC(=O)NC12CC3CC(CC(C3)C1)C2
    -2	i	0.78	-2.0	122	-52	115
> COC(=O)c1ccccc1NC(=O)c1cnn2cccnc12
    -3	i	0.93	/	103	/	/
> O=C(NC1CCCCC1)C1Cc2ccccc2CN1S(=O)(=O)c1ccc(F)cc1 (stereo unspecified)
    -1	i	1	-2.4	118	-293	155
> COC(=O)c1ccc(OCC2c3cc(OC)c(OC)cc3CCN2C(=O)c2ccco2)cc1 (stereo unspecified)
    -11	i	0.86	0.0	101	40	107
> Cc1ccc(C(=O)N2CCCC(CCC(=O)N3CCN(c4ccccn4)CC3)C2)s1 (stereo unspecified)
    8	i	0.94	/	109	/	/
> CN(C)c1ccc(C(=S)N2CCN(C(=S)Nc3cccc4ccccc34)CC2)cc1
    4	i	0.96	/	102	44	70
> COc1ccc(C(=O)CNc2ccccc2C#N)cc1
    -3	i	1.1	/	100	/	/
> Cc1ccc(CNC(=O)COc2ccccc2-c2ccccc2)cc1
    1	i	1	-1.3	91	-33	63
> CN1CCCN(C(=O)CC2(CC(=O)O)CCCC2)CC1
    -1	i	0.91	/	157	13	89
> Cc1cnc(NC(=O)CCNC(=O)c2ccc([N+](=O)[O-])cc2)s1
    5	i	1.1	/	101	/	/
> CCn1c(SCc2nc(N)nc(N3CCCCC3)n2)nc2c1c(=O)n(C)c(=O)n2C
    -6	i	0.8	-1.4	104	15	116
> COc1ccc(C(CNC(=O)c2cc3ccccc3o2)N2CCCCC2)cc1 (stereo unspecified)
    3	i	0.97	/	97	/	/
> COC(=O)C1=C(C)N(Cc2ccco2)C(=O)N[C@@H]1c1ccccc1
    -6	i	0.89	-1.5	95	-64	117
> COc1cc(NC(=O)COc2ccccc2)c(OC)cc1NC(C)=O
    0	i	0.87	/	100	11	133
> O=C1CCCc2ccccc2N1Cc1ccc(Cl)cc1Cl
    -1	i	1	-4.6	95	-25	130
> COc1cc(NC(=S)NCCC(c2ccccc2)c2ccccc2)c(OC)cc1Cl
    -2	i	1.1	-1.1	102	53	112
> Cc1cc(C(=O)Nc2cccc(O)c2)c(C)o1
    -3	i	0.89	-1.0	108	21	63
> O=C(O)C1CCCN(C(=O)NCc2ccccc2)C1 (stereo unspecified)
    -6	i	0.83	-0.4	102	-5	111
> Cc1nc(NS(=O)(=O)c2ccc(Cl)s2)c2c3c(sc2n1)CCCC3
    /	i	1	/	103	/	/
> CCCCCCCC[n+]1cccc(C(=O)N(CC)CC)c1
    -10	i	1.1	-0.1	127	-7	63

Next section.
Compound | PKD1 kinase inh | HSV augment | HSV augment primary fold | GALR2 ag | RGS16-Gao HTS | INS promoter inh | INS promoter inh cell count
COc1ccc(C)cc1N(C(=O)CNC(=O)c1ccco1)C(C(=O)NC1CCCC1)c1cccnc1 (stereo unspecified) | -10 | i | 1.1 | -1.1 | 102 | / | /
COc1cc(CNn2cnnc2)ccc1OCC(=O)NC(C)(C)C | 5 | i | 0.95 | -1.2 | 103 | 27 | 55
O=S(=O)(c1ccc(F)cc1)c1nc(-c2ccco2)oc1Nc1ccc(F)cc1 | -11 | i | 1 | -1.4 | 100 | / | /
O=C1C2=C(CCCC2)C(=O)N1c1cccc(OCCBr)c1 | -9 | i | 0.95 | -1.2 | 104 | -107 | 109
CCOC(=O)c1ccccc1NC(=O)c1cccc(F)c1 | -7 | i | 0.82 | 0.4 | 54 | 44 | 98
COc1ccc(NC(=O)Nc2ccc(C(=O)N3CCOCC3)cc2)cc1 | 2 | i | 0.98 | 0.5 | 89 | -8 | 189
COCCN(C(=S)Nc1ccc(C(C)C)cc1)C(C)c1cccs1 (stereo unspecified) | -5 | i | 0.9 | / | 100 | -7 | 65
Cc1cc(CNC(=O)c2ccc3c(c2)OCO3)c2ccccc2n1 | -3 | i | 0.89 | / | 92 | 21 | 68
CCOC(=O)c1[nH]c(C)c(C(=O)N2CCN(c3cccc(Cl)c3)CC2)c1C | -2 | i | 0.97 | -1.6 | 104 | / | /
CC(Sc1nc(N(C)C)nc(N2CCOCC2)n1)C(=O)Nc1ccccc1 (stereo unspecified) | -2 | i | 0.85 | -2.4 | 107 | 0 | 94
COc1cccc(OCCn2cc(C(=O)c3ccco3)c3ccccc32)c1 | -6 | i | 0.96 | -1.8 | 87 | -180 | 143
Cc1c(Cl)c([N+](=O)[O-])nn1CCCC(=O)Nc1cc(Cl)ccc1Cl | -6 | i | 0.98 | -1.2 | 113 | -14 | 92
Cc1cccc(Nc2nc(-c3ccc4c(c3)OCCO4)cs2)c1 | -1 | i | 1.1 | -2.5 | 100 | -41 | 156
CC[n+]1ccc(/C=C/c2ccc(N(C)C)cc2)c2ccccc21 | -4 | i | 0.8 | / | 108 | / | /
Cc1ccc(-c2csc3ncnc(SCC(=O)NCc4ccc5c(c4)OCO5)c23)cc1 | -13 | i | 0.77 | -1.8 | 93 | 37 | 101
COC(=O)c1nc(N)sc1C | -6 | i | 0.97 | / | 103 | / | /
CC(C(=O)Nc1nc2ccccc2[nH]1)N1C(=O)C2CC=CCC2C1=O (stereo unspecified) | -14 | i | 0.96 | -3.2 | 98 | / | /
COc1ccc(CC(=O)Nc2ccc(N3CCOCC3)cc2)cc1OC | / | i | 0.96 | / | 110 | / | /
CCn1cc(CN2CCCC(CNS(=O)(=O)Cc3ccccc3)C2)cn1 (stereo unspecified) | 2 | i | 0.78 | / | 127 | / | /
COC(=O)c1cc(C)sc1NC(=O)c1cccnc1 | -1 | i | 0.81 | -2.0 | / | -312 | 112
CCCCn1c(-c2cc(Cl)ccc2OC)n[nH]c1=S | 0 | i | 0.81 | -0.3 | 108 | 26 | 94
CC1Cc2ccccc2N1C(=O)CSc1nnc(-c2ccc(S(=O)(=O)N3CCOCC3)cc2)n1C (stereo unspecified) | -13 | i | 1.1 | -0.3 | 101 | -128 | 136
CC1CCCN(CCCOc2ccc([N+](=O)[O-])cc2)C1 (stereo unspecified) | -5 | i | 1.1 | -0.3 | 154 | -8 | 55
CC(=O)Oc1cc2c(cc1Cl)C1(CC(c3ccccc3Cl)O2)CC(C)(C)NC(=S)N1 (stereo unspecified) | 0 | ? | / | -0.4 | 100 | 3 | 97
N#C/C(=C(/O)COC(=O)Cc1c[nH]c2ccccc12)c1nc2ccccc2[nH]1 | 15 | i | 0.98 | -1.5 | 113 | / | /
Cc1ccc(S(=O)(=O)NCCC(=O)Nc2nccs2)cc1 | -1 | i | 1.1 | / | 105 | / | /
O=C(NCC1CCCO1)/C(=C\c1ccco1)NC(=O)c1ccccc1 (stereo unspecified) | -1 | i | 1 | -0.7 | 103 | -29 | 131
Cc1cc(C(F)F)n2nc(C(=O)Nc3sc4c(c3C#N)CCC4)nc2n1 | 4 | i | 0.92 | 0.3 | 99 | -31 | 96
CC1CCCC(C)N1c1nnc(N)s1 (stereo unspecified) | 9 | / | / | -1.9 | 20* | 5 | 60
Cc1nn(CC(=O)OCCOc2ccc(Br)cc2)c(C)c1[N+](=O)[O-] | -2 | i | 1.2 | / | 107 | -8 | 37
Cc1ccc(S(=O)(=O)Nc2ccc(NC(=O)CN3CCCCC3)cc2)cc1 | -6 | i | 0.99 | -2.1 | 91 | 50 | 122
COc1ccc(CNC(=O)COc2ccc(S(=O)(=O)NC(C)C)cc2)cc1 | 0 | i | 0.88 | 1.7 | 101 | 60 | 52

Reprinted from the part before: five compounds, then new ones.
Compound | PKD1 kinase inh | HSV augment | HSV augment primary fold | GALR2 ag | RGS16-Gao HTS | INS promoter inh | INS promoter inh cell count
Cc1cc(C(F)F)n2nc(C(=O)Nc3sc4c(c3C#N)CCC4)nc2n1 | 4 | i | 0.92 | 0.3 | 99 | -31 | 96
CC1CCCC(C)N1c1nnc(N)s1 (stereo unspecified) | 9 | / | / | -1.9 | 20* | 5 | 60
Cc1nn(CC(=O)OCCOc2ccc(Br)cc2)c(C)c1[N+](=O)[O-] | -2 | i | 1.2 | / | 107 | -8 | 37
Cc1ccc(S(=O)(=O)Nc2ccc(NC(=O)CN3CCCCC3)cc2)cc1 | -6 | i | 0.99 | -2.1 | 91 | 50 | 122
COc1ccc(CNC(=O)COc2ccc(S(=O)(=O)NC(C)C)cc2)cc1 | 0 | i | 0.88 | 1.7 | 101 | 60 | 52
CCCCC(=O)Nc1ccc(N2CCCC2)cc1 | 6 | i | 0.95 | -2.5 | / | / | /
CCCCC(=O)Nc1ccc(C(=O)NCCCn2ccnc2)cc1 | -2 | i | 0.66 | -0.2 | 111 | -37 | 85
O=C(Cc1c(F)cccc1Cl)Nc1nc2ccccc2s1 | -5 | i | 0.91 | / | 85 | / | /
CC(C)NC(=O)NC(=O)COc1ncnc2sccc12 | 8 | i | 0.79 | -1.1 | 116 | / | /
Fc1ccc2nc(N3CCCCC3)sc2c1 | 9 | i | 0.84 | -2.2 | 98 | 70 | 94
O=S(=O)(Nc1ccc(N2CCCCC2)cc1)c1ccc(F)cc1F | / | i | 1.1 | / | 101 | / | /
O=C(NCC1CCCO1)Nc1ccc(Cl)cc1 (stereo unspecified) | -2 | i | 1 | -0.9 | 99 | -24 | 115
CCc1ccc(N2CC34C=CC(O3)C(C(=O)OC)C4C2=O)cc1 (stereo unspecified) | 5 | i | 0.94 | -0.9 | 101 | / | /
COc1ccc(NC(=O)C2CCC(CNc3c(N4CCC(C)CC4)c(=O)c3=O)CC2)cc1OC (stereo unspecified) | -9 | i | 0.83 | -1.7 | 101 | / | /
Cc1nn(Cc2ccccc2)c(N)c1C#N | 11 | i | 0.84 | -2.8 | 114 | 0 | 101
COc1cc(NC(=S)NCc2cccnc2)cc(OC)c1 | -1 | i | 1.1 | -1.3 | 64 | -8 | 75
Cc1nc(N2CCOCC2)nc2c1CCC2 | 0 | i | 0.92 | / | 102 | / | /
CC1CCCCC1NC1=NCCCS1 (stereo unspecified) | -6 | i | 1.1 | / | 100 | / | /
Cc1cnc(C(=O)Nc2ccc(N3CCOCC3)cc2)cn1 | -9 | i | 0.98 | -0.5 | 103 | -41 | 62
Cc1nn(-c2ccccc2)c(N)c1C(O)(C(F)(F)F)C(F)(F)F | 3 | i | 1.1 | -2.1 | 125 | 32 | 144
CSc1nc(Cl)c(Cc2ccc(OC(C)C)cc2)c(N(C)C)n1 | -3 | / | / | 0.0 | 66 | / | /
O=C(c1ccco1)N1CCN(C(=O)C(Sc2ccccc2)c2ccccc2)CC1 (stereo unspecified) | -5 | i | 0.79 | -4.2 | 87 | 6 | 142
O=C(CSc1nnc2n1CCCN2)c1ccccc1 | / | i | 1.4 | / | 109 | / | /
O=C(NCc1csc(-c2cccs2)n1)Nc1ccc(C(F)(F)F)cc1 | / | i | 0.95 | / | 90 | / | /
COC(=O)CCC(=O)OC1(C)C(=O)C=C2C=C(C3CC3)N(Cc3ccccc3)C=C2C1=O (stereo unspecified) | / | i | 0.85 | / | 97 | / | /
C/C(N)=C(/C#N)C(=O)CSc1nnc(Nc2ccccc2C)s1 | -2 | i | 0.96 | -0.5 | 98 | 35 | 56

Assay outcomes: PubChem BioAssay, several laboratories
